Compound activity from PubChem BioAssay.
DUX4 inh = DUX4-mediated transcription inhibition; 293T-iDUX4 ZSCAN4-Gaussia luciferase reporter, 24 h; stronger effect = lower value; activity change, negative = inhibition, % (concentration not given with the values); 37,000 compounds, 0.8% hits; AID 1224904;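 active = -10% or lower and over 25 points stronger than a control reporter; inconclusive = -10% or lower with a smaller gap; inactive = above -10%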;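 note: 0% = median of neutral control wells and -100% = median of positive control wells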
DUX4 inh difference = further read-out of DUX4 inh, marked with its call; Gaussia minus Italica difference, %; measured here: selective DUX4 reporter inhibition;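 worked out from the two reporters; negative = selective loss of the DUX4 reporter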
DUX4 inh control = second read-out of DUX4 inh, no call of its own (marks repeat the call); activity change, negative = inhibition, %; measured here: Italica tet-on control reporter;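 0 = neutral control and -100 = positive control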
Starred values were filed as active, the others as inactive; ? = inconclusive; · = not tested or not shown. Some of the compounds tested. The share of hits here may be higher or lower than overall.

SMILES	DUX4 inh	DUX4 inh difference	DUX4 inh control
O=C(C[C@@H]1C[C@H]2c3cc(NS(=O)(=O)c4ccc(F)cc4)ccc3O[C@H]2[C@@H](CO)O1)NCc1ccc(Oc2ccccc2)cc1	?	·	·
COc1ccc(CN(C)C[C@@H]2Oc3ccc(NC(=O)Nc4ccc5c(c4)OCO5)cc3CC(=O)N([C@H](C)CO)C[C@@H]2C)cc1	0	-4	5.0
COCC(=O)N1[C@H](C#N)[C@H](c2ccccc2C2=CCCCC2)[C@@H]1CO	3	-7	9.6
COc1ccc(C#Cc2ccc([C@@H]3[C@@H](CO)N4CCCCN(Cc5ccncc5)C[C@@H]34)cc2)cc1	-45*	-34*	-11*
CC(C)NC(=O)N[C@@H]1CC[C@H](CC(=O)NC2Cc3ccccc3C2)O[C@@H]1CO	9	9	-0.6
C/C=C/c1ccc([C@@H]2[C@@H](CO)N(C(=O)C3CC3)C23CN(S(=O)(=O)CC)C3)cc1	-3	2	-4.9
O=C(C1CCC1)N1CC(=O)N2[C@@H](CO)[C@H](c3ccc(Br)cc3)[C@@H]2C1	14	10	3.5
COc1ccccc1C(=O)Nc1ccc2c(c1)C(=O)N(C)C[C@H](OC)[C@@H](C)CN(C(C)=O)[C@H](C)CO2	1	-7	8.1
COc1ccccc1-c1ccccc1[C@H]1[C@@H](C#N)N(C(=O)C2CCOCC2)[C@H]1CO	11	7	3.7
CC(=O)N1[C@H](CO)[C@@H](c2ccccc2)[C@@H]1CN(C)C(=O)c1ccccc1F	1	1	0.6
CO[C@@H]1CC[C@@H]2CCN(C)C(=O)CCCN(C)C(=O)c3cc(C#N)ccc3OC[C@H]1O2	-1	-1	0.4
CCC(=O)N1CC2(CN(C(=O)Nc3ccc(F)cc3)C2)c2c([nH]c3cc(OC)ccc23)[C@@H]1CO	9	4	5.0

Whole records, looked up by structure. Values in the order: DUX4 inh | DUX4 inh difference | DUX4 inh control
CCC(=O)N1CC2(CN(C(=O)Nc3ccc(F)cc3)C2)c2c([nH]c3cc(OC)ccc23)[C@@H]1CO reads 9 | 4 | 5.0
CC(C)NC(=O)N[C@@H]1CC[C@H](CC(=O)NC2Cc3ccccc3C2)O[C@@H]1CO reads 9 | 9 | -0.6
COc1ccccc1-c1ccccc1[C@H]1[C@@H](C#N)N(C(=O)C2CCOCC2)[C@H]1CO reads 11 | 7 | 3.7

Returning to the listing, repeating the 2 entries before the break.
SMILES	DUX4 inh	DUX4 inh difference	DUX4 inh control
CO[C@@H]1CC[C@@H]2CCN(C)C(=O)CCCN(C)C(=O)c3cc(C#N)ccc3OC[C@H]1O2	-1	-1	0.4
CCC(=O)N1CC2(CN(C(=O)Nc3ccc(F)cc3)C2)c2c([nH]c3cc(OC)ccc23)[C@@H]1CO	9	4	5.0
O=C(C[C@@H]1CC[C@H]2[C@@H](COC[C@H](O)CN2C(=O)Cc2ccccc2)O1)NC1CCCC1	9	4	4.2
COc1ccc(CNC(=O)N(C)C[C@@H]2OCc3ccccc3-c3ccccc3C(=O)N([C@@H](C)CO)C[C@H]2C)cc1	4	4	0.6
Cc1noc(C)c1NC(=O)N1C[C@@H](O)COC[C@@H]2O[C@H](CC(=O)NCC3CC3)CC[C@H]21	4	-2	5.7
COc1ccc(-c2ccc([C@@H]3[C@@H](CO)N4CCCCN(C(=O)c5ccc(F)cc5)C[C@@H]34)cc2)cc1	?	·	·
C[C@@H]1CN([C@H](C)CO)C(=O)c2ccccc2-c2ccccc2CO[C@H]1CN(C)S(=O)(=O)c1cn(C)cn1	-3	-8	4.3
C[C@@H]1CCCCO[C@H](CN(C)CC2CCCCC2)[C@H](C)CN([C@@H](C)CO)C(=O)c2cc(NC(=O)CCC(F)(F)F)ccc2O1	-2	1	-2.1
Cc1noc(C)c1NC(=O)N(C)C[C@@H]1Oc2c(NS(=O)(=O)c3ccc(Cl)cc3)cccc2C(=O)N([C@@H](C)CO)C[C@@H]1C	0	-2	2.1
CCCC#Cc1ccc([C@@H]2[C@@H](CO)N3C(=O)CN(C(=O)Nc4cc(F)ccc4F)C[C@@H]23)cc1	-3	-8	4.3
CN(C)CCCNC(=O)C[C@H]1C=C[C@@H](NC(=O)Cc2cccnc2)[C@@H](CO)O1	2	-2	3.5
O=C(Cc1ccncc1)N1CC(=O)N2[C@H](CO)[C@H](c3ccc(-c4cccc(F)c4)cc3)[C@@H]2C1	4	14	-9.7
CCC(=O)N[C@@H]1CC[C@H](CC(=O)NCc2ccccc2F)O[C@@H]1CO	5	6	-0.8
C[C@H]1CN([C@@H](C)CO)C(=O)c2c(c3ccccc3n2C)-c2ccccc2CO[C@@H]1CN(C)Cc1ccc2c(c1)OCO2	?	·	·
COC(=O)[C@@H]1[C@@H](CO)[C@@H]2Cn3c(ccc(-c4ccccc4)c3=O)[C@@H]2N1CCc1ccccc1	-3	7	-10
Cn1cnc(CCNC(=O)[C@@H]2[C@@H](CO)[C@@H]3Cn4c(cccc4=O)[C@@H]3N2C(=O)Nc2ccccc2)c1	2	-3	5.2
C[C@@H]1CCCCO[C@@H](CN(C)C(=O)C2CCCCC2)[C@@H](C)CN([C@H](C)CO)C(=O)c2cc(NS(=O)(=O)c3ccccc3)ccc2O1	-8	-4	-4.1
C[C@H]1CN([C@@H](C)CO)C(=O)c2cccc(NC(=O)C3CCOCC3)c2O[C@@H]1CN(C)S(=O)(=O)c1cn(C)cn1	0	1	-1.3
COCC#Cc1ccc([C@@H]2[C@H](CO)N3CCCCN(C(=O)NC4CCCC4)C[C@@H]23)cc1	2	3	-1.7
CO[C@@H]1CN(C)C(=O)c2cc(NC(=O)c3cnccn3)ccc2OC[C@H](C)N(C)C[C@@H]1C	1	-1	1.5
C[C@@H]1CCCCO[C@@H](CN(C)C(=O)Cc2ccccc2)[C@@H](C)CN([C@H](C)CO)C(=O)c2cc(NC(=O)CCCN(C)C)ccc2O1	4	3	0.6
C[C@H](CO)N1C[C@H](C)[C@H](CN(C)C(=O)Nc2cccc3ccccc23)Oc2ncc(-c3cccc(C(F)(F)F)c3)cc2C1=O	-6	-3	-3.1
CN(C)c1ccc2c(c1)[C@H]1C[C@@H](CC(=O)NCc3ccc4c(c3)OCO4)O[C@@H](CO)[C@H]1O2	1	-6	6.5
CC(=O)NC[C@@H]1[C@@H](c2ccc(-c3cccnc3)cc2)[C@@H](CO)N1C(=O)C1CC1	-1	-1	0.0
Cc1ccc(S(=O)(=O)N2[C@@H]3CNC[C@H]2C3c2ccc(-c3ccc(C#N)cc3)cc2)cc1 (some centres not stated)	17	10	6.8
C/C=C/c1ccc2c(c1)O[C@H](CN(C)S(=O)(=O)c1ccc(F)cc1)[C@H](C)CN([C@@H](C)CO)S2(=O)=O	-3	1	-3.8

A second format for part of the listing above:
The line under a structure holds: DUX4 inh | DUX4 inh difference | DUX4 inh control
- C[C@H](CO)N1C[C@H](C)[C@H](CN(C)C(=O)Nc2cccc3ccccc23)Oc2ncc(-c3cccc(C(F)(F)F)c3)cc2C1=O
 : -6 | -3 | -3.1
- CCCC#Cc1ccc([C@@H]2[C@@H](CO)N3C(=O)CN(C(=O)Nc4cc(F)ccc4F)C[C@@H]23)cc1
 : -3 | -8 | 4.3
- CC(=O)NC[C@@H]1[C@@H](c2ccc(-c3cccnc3)cc2)[C@@H](CO)N1C(=O)C1CC1
 : -1 | -1 | 0.0
- C/C=C/c1ccc2c(c1)O[C@H](CN(C)S(=O)(=O)c1ccc(F)cc1)[C@H](C)CN([C@@H](C)CO)S2(=O)=O
 : -3 | 1 | -3.8
- C[C@H]1CN([C@@H](C)CO)C(=O)c2cccc(NC(=O)C3CCOCC3)c2O[C@@H]1CN(C)S(=O)(=O)c1cn(C)cn1
 : 0 | 1 | -1.3
- CCC(=O)N[C@@H]1CC[C@H](CC(=O)NCc2ccccc2F)O[C@@H]1CO
 : 5 | 6 | -0.8

Next part.
SMILES	DUX4 inh	DUX4 inh difference	DUX4 inh control
CCc1cnc(N2[C@H](C#N)[C@H](c3ccc(-c4cccc(F)c4)cc3)[C@@H]2CO)s1	2	1	1.7
O=C(C[C@@H]1CC[C@@H]2[C@H](COC[C@@H](O)CN2C(=O)c2ccccc2F)O1)N1CCCCC1	8	-7	14
Cc1ccc(S(=O)(=O)Nc2ccc3c(c2)C(=O)N([C@@H](C)CO)C[C@@H](C)[C@@H](CN(C)Cc2ccc(C(F)(F)F)cc2)O3)cc1	0	1	-1.1
COCC(=O)N1C[C@H](C)[C@H](OC)CN(C)C(=O)c2cc(NC(=O)c3ccc(OC)cc3)ccc2OC[C@@H]1C	2	-2	3.2
C[C@@H]1CN([C@H](C)CO)C(=O)c2cc(C#Cc3ccccc3F)cnc2O[C@H]1CN(C)C(=O)Cc1cccnc1	-2	-5	3.1
CC(C)NC(=O)N(C)C[C@H]1OCc2cn(nn2)CCCC(=O)N([C@H](C)CO)C[C@H]1C	0	-3	2.9
C[C@H](CO)N1C[C@H](C)[C@H](CN(C)Cc2cccc(F)c2)OCc2ccccc2-c2c(n(C)c3ccccc23)C1=O	?	·	·
O=C(c1cnccn1)N1CC(=O)N2[C@H](C1)[C@@H](c1ccc(C#CCc3ccccc3)cc1)[C@@H]2CO	?	·	·
COc1ccc2c3c(n(C)c2c1)[C@H](CO)N(Cc1ccccc1OC)CC31CN(CC2CCOCC2)C1	-10	-3	-6.5
O=C(c1cccc(F)c1)N1CC2(C1)[C@@H](c1ccccc1)[C@@H](CO)N2C(=O)C1CCCCC1	4	4	-0.5
O=C1N[C@H](Cc2ccccc2)COCc2cnnn2CC[C@@H]1Cc1cccc(Cl)c1	2	-2	4.7
CC(C)NC(=O)N[C@@H]1CC[C@@H](CC(=O)NC2Cc3ccccc3C2)O[C@H]1CO	2	8	-5.8
CC1C=NC(S(=O)(=O)N2CC[C@@H]3[C@@H](CO)N(C)c4ccc(-c5ccccc5)cc4[C@@H]32)=N1 (some centres not stated)	24	19	4.4
CCCC#Cc1ccc([C@H]2[C@H](CO)N3CCCCN(Cc4ccncc4)C[C@@H]23)cc1	20	8	12
O=C(Cc1ccccc1)N1C[C@H]2[C@@H](c3ccccc31)[C@@H](CO)N2S(=O)(=O)c1ccccc1	0	-2	1.4
COc1cccc(NC(=O)N2CC3(C2)[C@H](c2ccccc2)[C@@H](CO)N3C(=O)C2CC2)c1	12	10	1.5
C[C@H]1CN([C@@H](C)CO)C(=O)CCCn2nncc2CO[C@@H]1CN(C)S(=O)(=O)c1cn(C)cn1	7	5	2.0
O=C(NC[C@H]1N[C@H](CO)[C@@H]1c1ccc(C2=CCCCC2)cc1)C1CCCC1	1	-2	2.3
O=C(Nc1cccc(Cl)c1)N1C[C@@H]2[C@H](c3ccccc31)[C@H](CO)N2C(=O)c1ccncc1	-4	-3	-1.4
CCCNC(=O)N1CC(=O)N2[C@H](CO)[C@@H](c3ccc(C#Cc4cccc(F)c4)cc3)[C@H]2C1	?	·	·
C/C=C/c1ccc([C@H]2[C@@H](C#N)N(c3nc(CC)cs3)[C@@H]2CO)cc1	3	2	1.5
C[C@H]1CN([C@@H](C)CO)C(=O)Cc2cc(NS(C)(=O)=O)ccc2O[C@H]1CN(C)S(=O)(=O)c1cccs1	-2	1	-2.5
O=C(NCC1CC1)[C@H]1[C@H](CO)[C@H]2Cn3c(cccc3=O)[C@@H]1N2CCc1ccccc1	3	2	1.2
COc1ccc(NC(=O)N[C@@H]2CC[C@H](CCNS(=O)(=O)c3cccc(Cl)c3)O[C@@H]2CO)cc1	7	9	-2.6
CC(=O)NC[C@H]1[C@@H](c2ccc(-c3cccc(F)c3)cc2)[C@H](CO)N1C(C)=O	-3	-6	2.8
CC(=O)N1CC(=O)N2[C@H](CO)[C@@H](c3ccc(-c4ccc(C#N)cc4)cc3)[C@H]2C1	14	8	5.8
O=C(CC(F)(F)F)N1C[C@H]2[C@@H](c3ccccc31)[C@@H](CO)N2C(=O)c1ccncc1	3	12	-8.8
Cc1noc(C)c1S(=O)(=O)N(C)C[C@@H]1Oc2c(cccc2N(C)C)C(=O)N([C@H](C)CO)C[C@H]1C	-2	-3	0.9
Cc1noc(C)c1S(=O)(=O)Nc1ccc2c(c1)C(=O)N([C@H](C)CO)C[C@@H](C)[C@H](CN(C)C(=O)Nc1ccc3c(c1)OCO3)OCCCC[C@@H](C)O2	4	-3	7.0
CCCNC(=O)N(C)C[C@@H]1Oc2cc(C#C[C@H](C)O)ccc2S(=O)(=O)N([C@H](C)CO)C[C@H]1C	0	0	0.0
COCC(=O)N1[C@@H](CO)[C@H](c2ccccc2)C12CN(C(=O)c1ccc(F)cc1)C2	10	3	7.0
CC(C)NC(=O)N(C)C[C@H]1Oc2cc(-c3ccccc3)ccc2S(=O)(=O)N([C@H](C)CO)C[C@@H]1C	-2	-9	6.8
CCC(=O)N1CCC2(CC1)CN(CC1CCOCC1)[C@@H](CO)c1c2c2ccc(OC)cc2n1C	18	13	4.7
CO[C@H]1CN(C)C(=O)c2ccc(NS(C)(=O)=O)cc2OC[C@H](C)N(C(=O)CN(C)C)C[C@H]1C	8	8	0.8
O=C(c1ccccc1F)N1CC(=O)N2[C@H](CO)[C@@H](c3ccc(C#Cc4ccccc4)cc3)[C@H]2C1	?	·	·
O=C(C[C@@H]1C[C@@H]2c3cc(NC(=O)CC4CC4)ccc3O[C@@H]2[C@H](CO)O1)NCc1ccccn1	5	2	2.2
N#C[C@@H]1[C@H](c2ccc(-c3cccc(F)c3)cc2)[C@H](CO)N1S(=O)(=O)c1cccc(F)c1	0	-1	1.5
C[C@H](CO)N1C[C@H](C)[C@@H](CN(C)C(=O)Nc2cccc(F)c2)Oc2cc(C#CC3(O)CCCC3)ccc2S1(=O)=O	2	2	-0.3
